High-throughput results as filed in PubChem.
Mtb growth: Confirmatory growth inhibition assay against Mycobacterium tuberculosis H37Rv, potency (AID 1949); most inactive calls were filed without a number and no value below 0 was filed; inhibition, % at 10 µg/mL; hits with a dose series show IC50 in µg/mL; hit rate 1.6% among 100,000;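 active means confirmed in a dose series; inconclusive means about 50% or more but not retested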;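 further: bacteria grown 7 days with compound before Alamar blue readout; 0% = untreated bacteria and 100% = reference antibiotic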
The depositor's hits bear a star; i = inactive; ? = inconclusive. Only part of the results is shown, so the mix of outcomes need not match the whole.

SMILES	Mtb growth
C=CCOC(=O)C1=C(C)NC(C)=C(C(=O)OCC=C)C1c1ccc(O)c(OCC)c1	i
C=CCn1c(SCC(=O)Nc2sc3c(c2C#N)CCCC3)nnc1-c1cc(Br)ccc1O	i
O=C(NCCc1ccncc1)Nc1cccc2ccccc12	i
O=C(Nc1ccc(F)c(F)c1)c1ccncc1	i
COc1cc(Br)c(S(=O)(=O)N2CCOCC2)cc1OC	4%
O=C(O)c1c(NC(=O)c2cccc3ccccc23)sc2c1CCC2	i
Cc1nc2ccccc2n1CCOc1ccccc1	7%
Cc1ccc(COc2ccc(C3C4=C(CCCC4=O)NC4=C3C(=O)CCC4)cc2Br)cc1	i
O=C(Nc1cccc(C(=O)Nc2ccc(Cl)cc2)c1)c1ccccc1	i
Cc1ccc(S(=O)(=O)NC(=O)c2cccc(I)c2)cc1	i
COc1c(C)cc(NC(=O)c2ccccc2O)cc1C	21%
COc1cc(NC(=O)c2cc3ccccc3o2)c(OC)cc1Br	2%

A second format for some results above.
| molecule | Mtb growth |
| --- | --- |
| C=CCn1c(SCC(=O)Nc2sc3c(c2C#N)CCCC3)nnc1-c1cc(Br)ccc1O | i |
| O=C(NCCc1ccncc1)Nc1cccc2ccccc12 | i |
| O=C(Nc1ccc(F)c(F)c1)c1ccncc1 | i |
| COc1cc(Br)c(S(=O)(=O)N2CCOCC2)cc1OC | 4% |
| O=C(O)c1c(NC(=O)c2cccc3ccccc23)sc2c1CCC2 | i |
| Cc1nc2ccccc2n1CCOc1ccccc1 | 7% |
| Cc1ccc(COc2ccc(C3C4=C(CCCC4=O)NC4=C3C(=O)CCC4)cc2Br)cc1 | i |
| O=C(Nc1cccc(C(=O)Nc2ccc(Cl)cc2)c1)c1ccccc1 | i |
| Cc1ccc(S(=O)(=O)NC(=O)c2cccc(I)c2)cc1 | i |
| COc1c(C)cc(NC(=O)c2ccccc2O)cc1C | 21% |

(next part)
SMILES	Mtb growth
CCOc1ccc(N2CC(C(=O)Nc3cc(Cl)ccc3OC)CC2=O)cc1 (stereo not given)	i
Cc1cc(Cl)ccc1NC(=O)c1cc(Cl)ccc1Cl	4%
Cc1ccc(N/C(N)=N/c2nc(CSc3ccc(Cl)cc3)cc(=O)[nH]2)c(C)c1	i
CSc1nsc(SCC(=O)Nc2nnc(C)s2)n1	i
COc1cc(/C=C/c2[nH]c(=O)[nH]c(=O)c2[N+](=O)[O-])cc(Cl)c1OCc1ccccc1C#N	i
CCc1ccc(S(=O)(=O)Nc2c(C)nn(C)c2C)cc1	i
Cc1ccc(C(C)C)c(OCCn2c(SCCO)nc3ccccc32)c1	4%
O=C(c1ccc(NS(=O)(=O)c2cccc(C(F)(F)F)c2)cc1)N1CCCC1	i
Cc1ccc(C(C)C)cc1OCCCCN1CCCC1	2%
CC(C)c1ccccc1NC(=O)CN(c1cc(Cl)ccc1Cl)S(C)(=O)=O	i
CCCCn1nnc(NC(=O)COc2ccc(Cl)c(C)c2)n1	?
CCOC(=O)N1CCN(C(=O)C2CC=CCC2C(=O)O)CC1 (stereo not given)	i
COc1cc(NC(=S)Nc2cccc3ccccc23)cc(OC)c1	21%
O=C(NCc1ccco1)C1CCC(C(=O)NCc2ccco2)CC1 (stereo not given)	i
CCN1C(=O)/C(=C2\SC(=S)N(c3c(C)n(C)n(-c4ccccc4)c3=O)C2=O)c2ccccc21	i
Cc1ccc(S(=O)(=O)Nc2ccc(C(=O)Nc3c(F)cccc3F)cc2)cc1	i
Cc1ccc(N(C)C(=O)Oc2c(Cl)cc(Cl)c3cccnc23)cc1	5%
Cc1nnc(SCC(=O)Nc2cccc(C(F)(F)F)c2)s1	i
O=S(=O)(c1cc(Br)cc(S(=O)(=O)C(F)(F)F)c1)C(F)(F)F	1%
CCc1c(C)sc(NC(=O)c2ccc([N+](=O)[O-])cc2)c1C(=O)OC	i
Cc1ccnc(SC2CC(=O)N(c3ccc([N+](=O)[O-])cc3)C2=O)n1 (stereo not given)	i
COc1ccccc1/C=C/C(=O)C12CC3CC(CC(C3)C1)C2	1%
COc1ccc(C2CC(C)=NN2C=O)cc1OC (stereo not given)	1%
Nc1nc(Nc2cccc(Cl)c2)sc1C(=O)c1ccc(F)cc1	4%
O=Cc1ccc(C(=O)OCc2ccc(Br)cc2)cc1	10%
O=[N+]([O-])c1ccc(CSc2nnc(-c3ccc(Cl)cc3)n2-c2ccccc2)cc1	i
COC(=O)c1c(NC(=S)NCCn2cc(Br)cn2)sc2c1CCC2	i
Cc1c(Cl)cccc1NC(=O)C(=O)NCc1ccc(C(C)C)cc1	i
CC(=O)Oc1ccc(NC(=O)COc2ccccc2C)cc1	i
COc1ccc(Cl)cc1S(=O)(=O)N1CCCC1	i
COC(=O)Cc1ccc(NC(=S)N2CCN(c3ncccn3)CC2)cc1	i
CC(=O)CSc1nnc(NC(=O)CCc2ccccc2)s1	i
O=C1CCCC2=C1C(c1cccnc1)N=C(Nc1nc3ccccc3s1)N2 (stereo not given)	i
O=C(c1cccs1)N1C(=O)c2cccc3cccc1c23	i
O=C(NCc1ccccc1)c1cc2cc(Cl)cc(Cl)c2oc1=O	i
Cc1ccc(S(=O)(=O)NCCCNC(=O)N2CCOCC2)cc1	2%
Cc1ccc(NC(=O)c2ccc(OC(=O)c3cc4ccccc4oc3=O)cc2)cc1	22%
CCOc1ccccc1N(CC(=O)Nc1cccnc1)S(C)(=O)=O	i
COc1ccccc1NC(=O)c1ccc2nc(C)c(C)nc2c1	i
CCc1cccc(C)c1NC(=O)C1CCN(C(=O)c2cccs2)CC1	i
CCC(Oc1ccccc1)C(=O)Nc1ccc(C)cc1NC(=O)C(CC)Oc1ccccc1 (stereo not given)	i
CCCCc1cc(=O)oc2cc(OS(C)(=O)=O)ccc12	i
CC(=O)Nc1cccc(NC(=O)CCCc2ccccc2)c1	i
O=C(Nc1ccccc1-c1nc2ccccc2s1)c1cccc2c(Cl)cccc12	1%
Cc1ccc(-n2cc(-c3ccccc3)c3c(NCc4cccnc4)ncnc32)cc1	3.2µg/mL*
CCn1c(SCC(=O)Nc2ccc(OC)cc2)nnc1-c1cccc(C)c1	i
O=C(c1cccc(COc2ccccc2Cl)c1)N1CCCCC1	6%
Cc1ccc(NC(=O)CSc2nnc(Cc3ccccc3)n2C)c(Br)c1	i
CN(C)c1cccc(C(=O)N2CCOCC2)c1	i
CCCn1c2ccccc2c2nnc(SCC(=O)Nc3nc(-c4ccccc4)c(C)s3)nc21	i
COc1ccccc1-c1nc(SCC(=O)Nc2ccccc2[N+](=O)[O-])n[nH]1	i
O=c1c2ccccc2ncn1CCCCSc1ccc(Cl)cc1	i
CC(=O)Nc1ccc(NC(=O)CCC(=O)O)cc1C	i
Cc1cccc(NC(=O)CSc2nnc(CNC(=O)c3ccc(Br)cc3)n2C)c1	i
Cc1cc(Br)c(OCC(=O)N=Nc2c(O)n(C)c3ccccc23)c(Br)c1	i
N#Cc1sc2nc(C34CC5CC(CC(C5)C3)C4)ccc2c1N	2%
Cc1ccc(C(=O)N2CCN(S(C)(=O)=O)CC2)o1	i
CN(C)Cc1c(O)ccc2c(=O)c(Oc3ccccc3F)c(C(F)(F)F)oc12	i
CCOc1ccccc1NC(=O)CN(c1ccc(Oc2ccccc2)cc1)S(C)(=O)=O	7%
O=[N+]([O-])c1ccc(N2CCCCC2)cc1Sc1nnnn1-c1ccccc1	i

Additional entries:
SMILES	Mtb growth
O=C(c1ccc2c(=O)n(-c3ccccc3)c(=O)[nH]c2c1)N1CCCCC1	i
COc1cc(SC)ccc1C(=O)Nc1nc(C)cc(C)n1	i
Nc1ncnc(Nc2ccc(F)cc2Cl)c1[N+](=O)[O-]	i
Cc1csc(CCc2nc(C)cs2)n1	i
O=C(Nc1nc(-c2ccc(Cl)c(Cl)c2)cs1)c1c(F)cccc1F	2%
COc1ccc2c(c1)c(=O)oc1c(C)c(OC(C)C(=O)O)ccc12 (stereo not given)	i
CCc1nc2ccccc2c(N)c1C (tested in a mixture with another compound)	i
COC(=O)c1c(NC(=O)CCCOc2ccc(C)cc2)sc2c1CCCC2	1%
O=C(NC(=S)Nc1cccc(Cl)c1N1CCCCC1)c1ccco1	18%
O=C(Nc1cccc2nsnc12)c1sc2cccc(F)c2c1Cl	13%
COc1ccc(-n2c(COc3cccc4cccnc34)nnc2SCC(=O)O)cc1	i
Cc1cc(I)ccc1NC(=O)C(C)N1C(=O)c2ccccc2C1=O (stereo not given)	i
CCOC(=O)N1CCN(C(=S)Nc2cc(Cl)ccc2OC)CC1	i
CCN1CCN(C(=O)c2ccc(F)c(F)c2)CC1	5%
Cc1cccc(NC(=O)Nc2cccc(F)c2)n1	i
CC1(C)CC(=O)C2=C(C1)OC(N)=C(C#N)C21C(=O)N2CCCc3cccc1c32 (stereo not given)	i
COC(=O)C1=CN(c2ccc(OC)cc2)C=C(C(=O)OC)C1c1cccc2ccccc12	i
Cc1ccc(NC(=O)CSc2nc(CSc3ccc(C)cc3)cc(=O)[nH]2)cc1	i
COc1ccc(OCCSc2nc3ccccc3c(=O)n2-c2ccccc2)cc1	16%
Cc1cc(N)n(-c2ccccc2C(=O)O)n1	0%
COC(=O)c1cccc(S(=O)(=O)N2CC3(C)CC2CC(C)(C)C3)c1 (stereo not given)	i
O=C(Nc1cc(NC(=O)c2ccccc2)cc(C(=O)Nc2ccc(O)cc2C(=O)O)c1)c1ccccc1	i
O=C(COc1cccc(C(F)(F)F)c1)NCc1cccnc1	i
CCc1ccc(OCC(=O)O/N=C(\N)c2ccc(Cl)cc2)c(Br)c1	i
CCOC(=O)c1ccc(NS(=O)(=O)c2cc(F)ccc2OC)cc1	i
O=C(Cc1cccs1)Nc1ccc(Cl)cc1F	i
Cc1cc(C)nc(NC(=O)c2cc3nc(-c4ccc(C)c(C)c4)cc(C(F)(F)F)n3n2)n1	i
O=C(O)c1ccc(CSc2ccccc2)cc1	i
Cc1ccc(S(=O)(=O)NC2(C(=O)O)CCCCC2)cc1	i
CCc1ccc(/C=C/c2nc3ccc(I)cc3c(=O)n2C)cc1	i
O=c1c(-c2nc3ccccc3s2)coc2cc(O)ccc12	i
O=C(CN(c1ccccc1)S(=O)(=O)c1ccccc1[N+](=O)[O-])Nc1ccc(F)cc1F	i
Brc1ccc(SCCc2nc3ccccc3o2)cc1	5%
CC1(C)CC(=O)C2=C(C1)NC(Nc1nc3ccccc3o1)=NC21CCCC1	0%
COc1ccc(NC(=O)c2sc3cccc(F)c3c2Cl)cc1OC	3%
O=C(CCN1C(=O)c2ccccc2C1=O)Oc1ccc(Cl)cc1	i
CC(C)COc1ccc(C(=O)Nc2ccc(SC(F)F)cc2)cc1	i
Cc1ccc(O)c(CNc2cnc3ccccc3c2)c1	45%
CS(=O)(=O)N(CC(=O)N1CCOCC1)c1cccc(F)c1	i
Cc1cccc(N2CC(C(=O)Nc3ccc4c(c3)OCO4)CC2=O)c1C (stereo not given)	i
COCCCNC(=S)NNC(=O)C(Sc1ccccc1)c1ccccc1 (stereo not given)	i
CCOC(=O)N1CCN(C(=O)CCc2ccccc2)CC1	i
C#CC(CC)(CC)NC(=O)Nc1cc(C)ccc1OC	i
CCCOc1ccc(C(=O)Nc2sc(C)c(C)c2C(=O)OCC)cc1	i
COC(=O)c1cc(NS(=O)(=O)c2ccc(F)cc2)cc(C(=O)OC)c1	i
CCCC(=O)Nc1ccc(C(=O)c2ccccc2)cc1NC(=O)CCC	i
O=C(Nc1cc(Cl)ccc1C(=O)O)c1ccc(CN2C(=O)c3ccccc3C2=O)cc1	i
O=C(Nc1nc2ccccc2s1)c1ccccc1Br	11%
Cc1cc(=O)oc2cc(N3C(=O)CC(Cc4ccccc4)C3=O)ccc12 (stereo not given)	i
O=C(Cc1ccccc1)Oc1cccc2c(OC(=O)Cc3ccccc3)cccc12	16%
O=C1CC(N2CCC(c3nc4ccccc4o3)CC2)C(=O)N1 (stereo not given)	i
O=C(CCN1C(=O)C2C3C=CC(C3)C2C1=O)Nc1ccccc1 (stereo not given)	i
CCOC(=O)c1c(NC(=O)CSc2ncccn2)sc(C(C)=O)c1C	i
COc1ccc(CNC(=S)Nc2ccc(F)cc2F)cc1	i
CCc1ccc(C(=O)Nc2ccc(I)cc2CC)cc1	11%
O=C(O)COc1ccc(C(=O)NCc2ccccc2)cc1	i
Cc1ccccc1-c1nc2cc(NC(=O)CC(C)C)ccc2o1	i
CCOC(=O)C1CCN(C(=O)CN(Cc2cccc(C)c2)S(=O)(=O)c2ccc(C)cc2)CC1	i
Cc1ccccc1NC(=O)c1ccc(C)c(S(=O)(=O)Nc2cccc(F)c2)c1	0%
COc1ccc(C(=O)NC(=S)Nc2ccc(I)cn2)cc1[N+](=O)[O-]	i

4 compounds out of the list, arranged by SMILES length, lowest first:
SMILES	Mtb growth
COc1ccc(CNC(=S)Nc2ccc(F)cc2F)cc1	i
O=C(O)COc1ccc(C(=O)NCc2ccccc2)cc1	i
CCOC(=O)c1c(NC(=O)CSc2ncccn2)sc(C(C)=O)c1C	i
Cc1cc(=O)oc2cc(N3C(=O)CC(Cc4ccccc4)C3=O)ccc12 (stereo not given)	i

New compounds follow
SMILES	Mtb growth
CN1CCC(N(C)C(=S)NC2CCCCC2)CC1	i
Cc1ccc(-n2c(SCC(=O)Nc3ccc(F)c(Cl)c3)nc3ccccc3c2=O)cc1	6%
CCOc1ccc(OCC(=O)Nc2nc(-c3ccccc3)cs2)cc1	i
CCCSc1nc2ccc(C)cc2[nH]1	i
CC(C)(C)c1ccc(C(=O)Nc2cccc([N+](=O)[O-])c2)cc1	?
CC(C)OC(=O)CSc1nnc(-c2ccccn2)n1N	i
COC(=O)c1sccc1NS(=O)(=O)c1ccc(Cl)cc1	4%
COc1ccc([N+](=O)[O-])cc1NC(=O)c1cc(-c2ccc(C)s2)nc2ccccc12	i
COc1ccc([N+](=O)[O-])cc1NC(=O)c1cc(C)oc1C	i
O=C(C1CCCC1)N1CCN(C(c2ccccc2)c2ccccc2)CC1	24%
O=C(O)c1ccc(CSc2n[nH]c(-c3ccco3)n2)cc1	i
